D2 PAM: human D2 receptor positive allosteric modulation | P14416 | potentiation, % (concentration not given with the values) | DiscoveRx D2 beta-arrestin cells, luminescence, 90 min; 100% = 57 uM dopamine signal | actives 0.23% (n = 360,000) | AID 624464; active = potentiation of 50% or more; inconclusive = 30% to 50%; inactive = 30% or less;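 note: compound concentration not given in the record; tested on top of an EC20 dose of dopamine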
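PathHunter beta-arrestin assay in DiscoveRx D2 cells. Compounds were added with an EC20 of dopamine (50 nM final) for 90 min at 37 deg C. Luminescence was read 1 h after detection reagent, with 57 uM dopamine as the EC100 control.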
TRPML1 blocker: human mucolipin-1 channel inhibition; TRPML1-inducible cells, Ca2+ dye fluorescence, FDSS; active compounds read low; inhibition of EC80 agonist-evoked calcium signal; Q9GZU1; actives 0.02% (n = 390,000); activity change, negative = inhibition, % (test concentration not listed); in the data active means activity change below about -50%; inconclusive means about -30% to -50%; inactive means above about -30%;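 note: stimulus is agonist 54-4 at its EC80 concentration; % is set by controls: 0 for no effect and ±100 for the full control effect; compound concentration not given in the record; the text of the record puts the active cut at -80%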
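Calcium fluorescence in TRPML1-DL cells induced overnight with Tet: a 110 s read after compound pin addition, then a 110 s antagonist read after challenge with 54-4 at 4 uM final (EC80).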
TRPML1 ag: activates the human TRPML1 channel; AID 624414; activation, % (no concentration beside the values); Q9GZU1; actives 0.12% (n = 410,000); TRPML1-expressing cells, Ca2+ dye fluorescence, FDSS; host cell line not named in the record; reference of the full effect not given here; in the data active = activation above about 50%; inconclusive = about 30% to 50%; inactive = below about 30%; note: 0% is about no effect; the text of the record puts the active cut at 80%
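Tetracycline-induced TRPML1-DL cells are seeded and incubated overnight before loading with a no-wash Ca2+ dye and quencher. Agonist activity is taken from the 110 s fluorescence read following compound pin-transfer on an FDSS, before EC80 54-4 challenge.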
CtBP-E1A inh: inhibitors of CtBP/E1A interaction; AlphaScreen GST-E1A/His-CtBP binding, 1536-well; active compounds read low; control for the full effect not named in the record; activity change, % (concentration not given with the values); actives 0.49% (n = 340,000); AID 651724; in the data active means activity change below about -65%; inconclusive means about -30% to -65%; inactive means above about -30%; note: % is set by controls: 0 for no effect and ±100 for the full control effect
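AlphaScreen with 125 nM GST-E1A and 125 nM His-CtBP (5X stocks) in Tris pH 8.0, 300 mM NaCl, BSA, Tween 20, TCEP. Compounds preincubated 2 h at 37 deg C, then glutathione donor/nickel acceptor beads added for 1 h at 37 deg C in dark.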
Six1-Eya2 inh: inhibitors of human Six1/Eya2 interaction; Q15475+O00167; AlphaScreen GST-Six1/His-Eya2 binding, biochemical; active compounds read low; control for the full effect not named in the record; activity change, % (test concentration not listed); actives 0.56% (n = 360,000); AID 651725; in the data active = activity change below about -65%; inconclusive = about -30% to -65%; inactive = above about -30%; note: % is set by controls: 0 for no effect and ±100 for the full control effect
Target sequence (O00167 whole entry, looked up): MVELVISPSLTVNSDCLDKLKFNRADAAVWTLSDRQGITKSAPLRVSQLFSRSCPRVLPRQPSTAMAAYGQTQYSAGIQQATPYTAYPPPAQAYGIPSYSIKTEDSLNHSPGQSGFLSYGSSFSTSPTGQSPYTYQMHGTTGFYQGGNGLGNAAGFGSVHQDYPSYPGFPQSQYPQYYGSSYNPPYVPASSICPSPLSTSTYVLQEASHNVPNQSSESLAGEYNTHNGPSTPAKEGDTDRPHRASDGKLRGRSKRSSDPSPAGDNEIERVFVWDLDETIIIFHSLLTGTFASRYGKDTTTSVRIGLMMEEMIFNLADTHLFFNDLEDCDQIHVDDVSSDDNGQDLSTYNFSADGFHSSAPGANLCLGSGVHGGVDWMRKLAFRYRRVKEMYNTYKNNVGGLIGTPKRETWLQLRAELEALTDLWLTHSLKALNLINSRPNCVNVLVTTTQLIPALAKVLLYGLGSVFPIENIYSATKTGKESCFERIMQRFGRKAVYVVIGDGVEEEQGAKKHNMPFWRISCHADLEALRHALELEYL
Target sequence (Q15475 whole entry, looked up): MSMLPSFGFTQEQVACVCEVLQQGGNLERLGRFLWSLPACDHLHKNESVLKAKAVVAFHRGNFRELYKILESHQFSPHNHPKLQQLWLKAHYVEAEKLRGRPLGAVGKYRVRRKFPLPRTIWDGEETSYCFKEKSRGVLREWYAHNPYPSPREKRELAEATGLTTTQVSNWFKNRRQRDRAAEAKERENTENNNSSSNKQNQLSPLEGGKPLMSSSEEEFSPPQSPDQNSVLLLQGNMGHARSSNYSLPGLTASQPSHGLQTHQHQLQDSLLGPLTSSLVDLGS
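Homogeneous AlphaScreen proximity assay pairing GST-Six1 with His-tagged Eya2 (added as 5X mix: 250 nM and 500 nM) in 50 mM Tris pH 8.0, 300 mM NaCl, 1 mM TCEP. Glutathione donor and nickel acceptor beads; 1 h, 37 °C, dark.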
TRPV1 PAM: human TRPV1 potentiation | TRPV1-expressing cells, Fluo-8 calcium influx, capsaicin EC20 potentiation; host cell line not named in the record; control for the full effect not named in the record | actives 0.02% (n = 320,000) | potentiation, % at 8.33 µM; active means potentiation above 80%; inconclusive means 30% to 80%; inactive means below 30%; note: 0% is about no effect
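TRPV1-expressing cells were cultured overnight at 35.5C and loaded with Fluo-8 calcium dye for 40 to 90 min at room temperature. After a 10 s baseline, compound was added and calcium influx was read kinetically for 3 min (ex 480/em 520 nm).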
Numbers without * were called inactive; ? = inconclusive; / = not tested or not shown; & = joins results of further samples.

SMILES	D2 PAM	TRPML1 blocker	TRPML1 ag	CtBP-E1A inh	Six1-Eya2 inh	TRPV1 PAM
CC(=O)c1cc2c(cc1NC(=O)c1ccc(C)cc1)OCCO2	-2	-15	2.1	10	9	-7
Cc1ccc2cc3cc(C(=O)NCCCN4CCc5ccccc5C4)oc3nc2c1	-13	3	-1.4	-16	-27	4
COC(=O)c1ccccc1NC(=O)c1cc(OC)cc(OC)c1	-8	61	2.9	11	24	/
O=C1NC[C@H](CCCCN2C[C@H](Cc3ccccc3)N(CCC3CCCCC3)C(=O)C2=O)N(CCC2CCCCC2)C1=O	/	/	-1.0	-2	1	/
O=C(O)CCc1ccc(-c2cccs2)n1NC(=O)c1ccc(Cl)cc1	-15	12	-0.1	8	-8	12
C=CCc1cc(/C=N/NC(=O)CSc2nnc(CCCc3ccc(OC)cc3)o2)cc(OC)c1O	-5	61	0.2	0	-2	10
Cc1cccc(OCc2nnc(SCC(=O)N3CCCC3)n2C)c1	-10	-8	-0.9	-7	3	7
COc1cccc(O)c1CN1CCC(n2nccc2NC(=O)c2ccc3c(c2)OCO3)CC1	-21	24	0.1	-4	-4	-15
CN1CCC2(CC1)C1CN(C)CC=C1C(C#N)=C(N)C2(C#N)C#N (stereo not given)	3&-2	-5&-6	8.1&1.5	11&-4	-8&-12	-6&7
O=C(Nc1cccc(Cl)c1)c1ccc(-n2cncn2)c([N+](=O)[O-])c1	-7	8	0.1	-2	-4	-15
COCCNC(=O)C1CCCN(C(=O)c2ccc3c(c2)C(C)(C)CCC3(C)C)CC1 (stereo not given)	-9	18	-0.1	5	1	/
O=C(NCCCN1CCC(Cc2ccccc2)CC1)c1ccc2nc(N3CCOCC3)sc2c1	-29	14	-0.5	/	-3	7
COc1ccc(-n2nc(C(=O)NCc3ccco3)c3ccccc3c2=O)cc1	-15	-4	-0.1	-7	1	20
COc1ccc(NC(=O)CNC(=O)c2nn(-c3ccc(OC)c(OC)c3)c(=O)c3ccccc23)c(OC)c1	8	30	0.1	-13	4	18
CC(=O)C1=C(c2ccccc2)NC(=O)NC1c1ccc2c(c1)OCO2 (stereo not given)	-3	-9	0.8	-17	5	-1

The closing five records of the part before are carried over, then new ones follow.
SMILES	D2 PAM	TRPML1 blocker	TRPML1 ag	CtBP-E1A inh	Six1-Eya2 inh	TRPV1 PAM
COCCNC(=O)C1CCCN(C(=O)c2ccc3c(c2)C(C)(C)CCC3(C)C)CC1 (stereo not given)	-9	18	-0.1	5	1	/
O=C(NCCCN1CCC(Cc2ccccc2)CC1)c1ccc2nc(N3CCOCC3)sc2c1	-29	14	-0.5	/	-3	7
COc1ccc(-n2nc(C(=O)NCc3ccco3)c3ccccc3c2=O)cc1	-15	-4	-0.1	-7	1	20
COc1ccc(NC(=O)CNC(=O)c2nn(-c3ccc(OC)c(OC)c3)c(=O)c3ccccc23)c(OC)c1	8	30	0.1	-13	4	18
CC(=O)C1=C(c2ccccc2)NC(=O)NC1c1ccc2c(c1)OCO2 (stereo not given)	-3	-9	0.8	-17	5	-1
CCc1ccc(C(=O)CN2C(=O)NC(C)(c3ccc(C)cc3)C2=O)cc1 (stereo not given)	-7	6	0.1	/	-2	4
COc1cccc(C(C)NC(=O)Nc2cc(Cl)ccc2OC)c1 (stereo not given)	-40	-5	-0.1	-8	8	7
COc1ccc(Nc2nnc(Cc3ccncc3)c3ccccc23)c(OC)c1	-2	/	/	8	-3	30
CCCCN(CCCC)c1ncnc2nc[nH]c12	-32	17	4.5	/	-2	-6
COc1ccc(CNC(=O)CNC(=O)c2c(C)nn(C)c2Cl)cc1	-7	-21	-0.1	-2	0	-2
Cc1cccc(C(=O)NCC(=O)OCC(=O)c2cc(C)n(CC3CCCO3)c2C)c1 (stereo not given)	2	13	-0.7	0	-1	2
CC(C)(C)OC(=O)C[C@H]1C/C=C\C[C@@H](CC(=O)N[C@H](CO)Cc2ccccc2)C(=O)NC[C@H](c2ccccc2)OC1=O	-2	42	-0.1	/	-1	/
Nc1cc(C(=O)OCC(=O)c2ccc(CC(=O)N3CCOCC3)s2)ccc1Cl	-1	-3	0.4	-4	-2	-2
CCOC(=O)C1(CC2CCCCO2)CCN(C(=O)Nc2ccccc2CC)CC1 (stereo not given)	0	-5	0.3	1	7	2
COc1ccccc1NC(=O)c1ccc(N2CC3CC(C2)c2cccc(=O)n2C3)c(NC(=O)c2ccncc2)c1 (stereo not given)	1	21	0.1	/	3	7
Cc1ccc(CNC(=O)CCNC(=O)c2ccc(Br)o2)cc1	-10	13	0.5	0	2	11
O=C(Cc1ccc(S(=O)(=O)N2CCOCC2)s1)N(Cc1ccccc1)c1ccccc1	-1	3	2.2	-3	1	-15
Cc1ccc(NC(=O)CC2Oc3ccccc3NC2=O)c(C)c1 (stereo not given)	-4	-16	-0.2	6	-2	2
Cc1cc(C)c(S(=O)(=O)Nc2ccc3c(c2)CCC3)c(C)c1	-6	-12	1.2	-1	-16	4
O=C(CSCc1cccc(Br)c1)N=Nc1c(O)[nH]c2ccccc12	1	22	6.9	-18	-11	-14
O=C(CCNC(=O)c1ccco1)Nc1nc(-c2ccccc2)cs1	-2	-25	-0.3	0	-12	/
COc1ccc(S(=O)(=O)Nc2ccc3cn[nH]c3c2)cc1[N+](=O)[O-]	-8	-3	0.5	/	4	3
COc1ccc(Nc2nc3ccccc3c(=O)[nH]2)cc1	-1	/	/	6	2	?
O=[N+]([O-])c1cc([N+](=O)[O-])c(Oc2cccc3c2CCCC3)cc1NN1CCCCC1	-40	6	0.0	0	1	/
C[C@@H]1CCCCO[C@H](CN(C)S(=O)(=O)c2cccs2)[C@H](C)CN([C@@H](C)CO)C(=O)c2cc(NC(=O)NC3CCCCC3)ccc2O1	-11	32	0.4	-15	10	/
CC1CCCCN1C(=O)CN1C(=O)c2ccccc2S1(=O)=O (stereo not given)	14	9	0.9	7	0	6
COc1ccc(CCNC(=O)c2cc3ccccn3n2)c(OC)c1OC	-8	24	0.1	-4	1	/
COc1ccc(C(C(=O)NC(C)(C)C)N(C(=O)CCC(=O)Nc2cc(C)on2)c2ccc(C)c(C)c2)cc1 (stereo not given)	-9	5	-0.8	-7	-2	-9
O=C(NCCCn1ccnc1)/C(=C\c1ccc(Br)cc1)NC(=O)c1ccccc1	-18	87	0.4	3	-1	23
Cc1cc(C)c2nc3nc(C)cc(C)c3c(N)c2c1	12	16	4.3	-23	-23	-5
Cc1ccc(OCCCC(=O)NC(C)c2ccccc2)cc1 (stereo not given)	-26	3	0.2	1	-5	-10
O=C(Oc1csc(=S)n1C(=O)c1ccccc1)c1ccccc1	-21	-5	-1.0	8	-11	8
CC(C)CC1c2[nH]c3ccccc3c2CCN1C(=O)CCC(=O)N(C)C (stereo not given)	-5	5	0.0	-5	3	-3
CC1(C(=O)N/N=C/c2ccc([N+](=O)[O-])o2)CC1(Br)Br (stereo not given)	1	41	0.6	18	-3	-5
O=C1CCCC/C1=C\Nc1ccc(Cl)cn1	-14	11	0.9	3	-4	-25

Single records, as listed above. Screens in order: D2 PAM | TRPML1 blocker | TRPML1 ag | CtBP-E1A inh | Six1-Eya2 inh | TRPV1 PAM
O=C(CCNC(=O)c1ccco1)Nc1nc(-c2ccccc2)cs1 as listed: -2 | -25 | -0.3 | 0 | -12 | /
CC1(C(=O)N/N=C/c2ccc([N+](=O)[O-])o2)CC1(Br)Br (stereo not given) as listed: 1 | 41 | 0.6 | 18 | -3 | -5

Going on with the list.
SMILES	D2 PAM	TRPML1 blocker	TRPML1 ag	CtBP-E1A inh	Six1-Eya2 inh	TRPV1 PAM
COc1ccc(CNC(=O)c2c[nH]c3ccccc3c2=O)cc1	0	8	0.2	-9	-10	9
Cc1cc(C)c(C(O)c2ncc(-c3cccc4ccccc34)[nH]2)c(C)c1 (stereo not given)	-21	/	-0.1	-1	-9	/
CN(Cc1cccc(Cl)c1Cl)CC(O)COc1ccccc1 (stereo not given)	-5	-16	1.1	/	9	3
Cc1ccc(-c2nnc(Nc3ccc(C(=O)N(C)C)cc3)c3ccccc23)cc1S(N)(=O)=O	3	19	0.1	/	-10	-1
Cc1ccc(S(=O)(=O)Nc2nc(CN3CCOCC3)nc3sc(C)c(C)c23)cc1	0	-6	0.9	10	12	22
Cc1cc(SCC(=O)c2cccs2)nc2c(C)cccc12	-20	10	1.0	27	18	2
CC1CCCCC12NC(=O)N(CC(=O)Nc1ccccc1-c1ccccc1)C2=O (stereo not given)	-7	-11	0.9	8	2	-11
CCSC1=C(C#N)C(c2ccc(F)cc2)CC(=O)N1 (stereo not given)	-3	3	-1.2	-6	-5	/
C=CCn1c(CCC(O)COCCC)n[nH]c1=S (stereo not given)	-15	7	-0.5	13	-9	-3
Cc1cc(OCC(=O)OC(C)C(=O)NC2CC2)c(C(C)C)cc1Cl (stereo not given)	-9	8	0.7	1	-2	/
COc1ccccc1NC(=O)COC(=O)c1ccc2c(c1)nc(C)n2-c1ccccc1	-8	-18	-0.5	4	1	?
CCC1C(=O)n2nc(-c3ccccc3)cc2N=C1C (stereo not given)	-23	9	-0.4	11	-15	2
COc1cc(/C=C(\C#N)C(=O)Nc2ccccc2C(=O)O)cc(Cl)c1OC	-12	16	1.5	-15	-8	6
c1ccc2c(c1)oc1c(NCc3ccc4c(c3)OCO4)ncnc12	-11	-6	-0.6	-3	-5	-14
CSCc1nnc(NC(=O)c2ccc(S(=O)(=O)N(C)C)cc2)o1	-3	-15	1.6	-24	-11	9
O=C(O)c1cc2c(cc1Br)OCCCO2	11	9	0.1	10	4	6
COCCNc1nc(Nc2ccccc2Cl)c2sc(-c3ccccc3)cc2n1	-10	/	-0.5	7	12	/
CCC(C)(C(=O)Nc1c(C)cccc1C)N(C)C(=O)c1ccc2ccccc2n1 (stereo not given)	-6	22	0.6	7	1	-5
CC(C)c1nn2c(=O)cc(CSc3ccccc3NC(=O)c3ccccc3F)nc2s1	-3	-8	1.7	-6	-1	8
CCc1nc2c(OCc3ccccc3C)cccn2c1N(C)C(=O)c1ccc(C)cc1	-11	/	-0.6	-5	-4	/
O=C1C=C(OCc2ccccc2)CN1	-5	-6	-0.8	0	1	-1
CCOC(=O)N1CCC(=NNC(=O)NC2CCCCC2)CC1	-1	12	-0.4	2	2	-12
S=C(N/N=C/c1cccc2ccccc12)Nc1cccc(Cl)c1	-16	11	0.0	-5	-7	12
Cc1cc(C)cc(NC(=O)N2CCN(C/C=C/c3ccccc3)CC2)c1	-8	-2	-0.2	1	-1	-12
O=C(Cc1ccccc1)N1CCC(C(=O)N2CCN(c3ccc(F)cc3)CC2)CC1	3	12	1.9	7	0	/
COc1cc(C(=O)NNC(=O)COc2ccc(C)cc2)ccc1OCC(=O)N1CCOCC1	-3	-12	0.0	-24	-1	-5
CC(C)C[C@@H]1O[C@H](C(C)C)Cc2[nH][nH]c(=O)c21	/	/	-0.4	1	2	/
Cc1cc(CNC(=O)COc2ccc([N+](=O)[O-])cc2)c2ccccc2n1	5	-4	-1.5	-25	-12	1
CCNc1nc(Cl)nc(NCc2ccccc2)n1	-7	-16	-0.1	3	-2	12
Cc1ccc(NC(=S)N=Nc2c(O)n(C)c3ccc(S(=O)(=O)N4CCOCC4)cc23)cc1C	19	19	0.3	-8	0	7
COc1ccc(C(=O)Nn2c(CC(C)C)nc3cc(Cl)ccc3c2=O)c(OC)c1	1	-4	0.2	10	4	18

Compound activity from PubChem BioAssay.
